# VACV mCherry inh: vaccinia inhibition (mCherry reporter); Vaccinia virus mCherry reporter infection, fluorescence; about a quarter of the inactives have no number; hit rate 0.63% among 310,000; Potency, µM (top dose mostly 36.5 µM), without a hit: at the top dose activity change, negative = inhibition, most hits filed as inhibitors; active = well fitted inhibition curve with a large enough effect; inconclusive = small, poorly fitted or top-dose-only effect; inactive = no such curve, though single readings can be large or run the other way; tested in A549 cells; further: nearly all actives have a fitted effect of over 35% in size; inactives centre near -10
# Vaccinia Venus: vaccinia inhibition (Venus reporter) | Vaccinia virus Venus reporter expression, fluorescence | Potency, µM (series often up to 36.5 µM), for the others: at the top dose activity change, negative = inhibition, hits mostly inhibitors | hit rate 0.46% among 330,000 | AID 720580; active means well fitted inhibition curve with a large enough effect; inconclusive means small, poorly fitted or top-dose-only effect; inactive means no such curve, though single readings can be large or run the other way; tested in A549 cells; further: nearly all actives have a fitted effect of over 30% in size; inactives centre near -10
# Numbers without * were called inactive; i = inactive; ? = inconclusive; · = no result given; & = joins results of further samples; [ ] = dose if it differs, or a comment. On the % scale 0 is the no-effect control and ±100 the full control effect; potency means the concentration at half of the fitted maximal effect.
# Every second line gives: VACV mCherry inh | Vaccinia Venus
N#C/C=C1/NC(=O)c2ccccc2S1
→ · | -6%
CCCCOc1ccc(NC(=O)CN2CCN(CC)CC2)cc1
→ i | -14%
COc1cc(C(=O)NCc2nnc(SCC(=O)N3CCCC3)o2)cc(OC)c1OC
→ i | -15%
COc1cc(C2NC(=O)NC(C)=C2C(=O)OC2CCCCC2)cc(Br)c1O (centres undefined)
→ -19% | -15%
O=C1c2ccccc2C(=O)c2c(NCc3cccnc3)cccc21
→ -13% | 17%
CCOC(=O)N1CCN(C(=O)CSc2nc3ccccc3c(=O)n2-c2ccccc2)CC1
→ · | -21%
CCS(=O)(=O)Nc1cccc(C2=NN(S(=O)(=O)c3ccccc3)C(c3ccco3)C2)c1 (centres undefined)
→ ? | -11%
O=C(NCCc1ccc2c(c1)OCCO2)c1ccc(F)cc1
→ -16% | -9%
CC(=O)Nc1ccccc1-c1nc(CNC(=O)c2cc(C)ccc2C)c(C)o1
→ -5% | 12%
Cc1nc2cc(C(=O)NCCC3=CCCCC3)ccc2n1-c1ccc(Br)cc1
→ 0% | -7%
COc1ccc(C(=O)OCC(=O)N(Cc2ccccc2)Cc2ccccc2)c(O)c1
→ ? | -17%
C[C@@H]1CCC(=O)N(CC[C@H](N=[N+]=[N-])c2ccccc2)CC1
→ i | -8%&-7%
COc1ccc(CNc2nc3c(-c4ccc(C)cc4)nnn3c3ccccc23)cc1
→ -1% | -1%
Cc1ccc(-c2nc(-c3ccccc3)no2)cc1
→ -17% | -6%
Cc1ccc(CSCCNC(=O)CSCc2ccc([N+](=O)[O-])cc2)cc1
→ -8% | -13%
CCN(CC(=O)Nc1ccccc1SC)Cc1nc2ccccc2c(=O)[nH]1
→ 63%[activator] | -3%
CC(C)NC(=O)Nc1nnc([C@@H]2C[C@H](O)[C@@H](CO)O2)s1
→ -7% | -14%
Cc1c(Cl)cccc1NC(=O)Cn1cc(C(F)(F)F)cc(Cl)c1=O
→ i | 9%
c1ccc(-c2nnc(OCC3CCCO3)c3ccccc23)cc1 (centres undefined)
→ -20% | -20%
CCOC(=O)c1cn2nc(SCc3ccccc3)nc2nc1C
→ -11% | -16%
COc1ccc(OCc2cn3c(C)cc(C)nc3n2)cc1
→ -14% | -12%
O=C(COC(=O)c1ccc(F)cc1F)NCCC1=CCCCC1
→ i | -11%
O=C(CSc1nnc(NC(=O)c2ccco2)s1)Nc1cccc(F)c1
→ -3% | -12%
CC(=O)N1c2ccc(S(=O)(=O)N3CCCC(C(=O)NC4CCCC(C)C4C)C3)cc2CC1C (centres undefined)
→ i | -11%
COc1ccc(CN(C)[C@H]2C[C@H]3c4[nH]c5ccccc5c4CCN3C[C@H]2[C@H](C)O)cc1
→ ? | -18%
COc1cc(N(C)C)c(OC)cc1/C=C1\Cc2ccccc2C1=O
→ i | -6%
Cc1ccc(Nc2nc(NCCO)c3ccccc3n2)cc1C
→ -15% | ?
CCOC(=O)CNC(=O)CSc1ncnc2c1cnn2-c1ccc(C)cc1
→ 4% | 9%
CC1CCC(NC(=O)COC(=O)CCC(=O)c2ccc(Cl)s2)CC1 (centres undefined)
→ i | -12%
Cc1ccc(C)c(CNC(=O)c2ccc3c(c2)nc2n3CCC(C)C2)c1 (centres undefined)
→ -3% | -2%
O=C(COc1ccccc1)NCC(=O)N1CCCC(C(F)(F)F)C1 (centres undefined)
→ -10% | 2%
CN(C(=O)c1ccc(S(=O)(=O)N2CCCCC2)cc1)C1CCS(=O)(=O)C1 (centres undefined)
→ -14% | -8%
COc1ccc(NC(C)=O)cc1S(=O)(=O)NC(Cc1ccccc1)C(=O)NCc1ccccc1C (centres undefined)
→ -8% | 3%
C/C(CC(=O)Nc1cccnc1)=N\NC(=O)c1ccc([N+](=O)[O-])c(Cl)c1
→ -14% | -1%
CCOC(=O)CCCCC(=O)c1[nH]c(=O)[nH]c1C[n+]1ccc(C)cc1
→ i | 4%
O=C(Cn1ccc(=O)[nH]c1=O)Nc1ccc(C(=O)O)c(O)c1
→ i | -3%
Cc1cccc(NC2=NC(C)(C)N=C(N)N2)c1C
→ -17% | -6%
C/C(=N/Nc1cc(-c2ccccc2)nc(-c2ccccc2)n1)c1ccc(O)cc1
→ ? | ?
Cn1c(=O)[nH]c(=O)c2c1nc(Br)n2C/C=N/Nc1ccccc1
→ -14% | -9%
CCOP(=O)(c1ccc(N(C)C)cc1)C(O)c1ccc(OC)cc1 (centres undefined)
→ -14% | -2%
Cc1ccc(S(=O)(=O)/N=C(/Nc2c(C)n(C)n(-c3ccccc3)c2=O)c2ccc(Cl)cc2)cc1
→ · | -2%
O=C(/C=C\c1cn(-c2ccccc2)nc1-c1ccccc1)Nc1nccs1
→ ? | ?
Cc1c(Cl)cccc1NC(=S)NN
→ -8% | -5%
O=C(C[C@@H]1C=C[C@@H](NC(=O)c2cccnc2)[C@@H](CO)O1)NCc1ccncn1
→ -6% | -6%
O=C1COc2ccc(-c3cc(-c4ccc(F)cc4)c4c(n3)-c3ccccc3OC4)cc2N1
→ ? | ?
O=C1CCCc2nc3c(cc21)C(O)Oc1ccccc1-3 (centres undefined)
→ -6% | 1%
COC(=O)C1=C(c2ccc(OC(F)(F)F)cc2)C[C@@H]2CC[C@H]1N2C(=O)NCc1cccc2ccccc12
→ ? | ?
CN1CCN(C(=O)CC2C(=O)NCCN2Cc2ccc(-c3ccccc3)cc2)CC1 (centres undefined)
→ -3% | -9%
CCCCNC(=O)OCCNC(=O)Oc1cccc(C)c1
→ · | -17%
COc1cc(C)ccc1OCC(=O)OCC(=O)c1ccc[nH]1
→ -11% | -8%
COc1ccc(N2CCN(C(=O)c3cnc(N4CCOCC4)c4ccccc34)CC2)cc1
→ -12% | -19%
CN(CC(=O)Nc1cccc2ccccc12)C(=O)c1cccc(S(=O)(=O)N(C)C)c1
→ -17% | -9%
c1csc(-c2nc(NCCCN3CCOCC3)c3ccccc3n2)c1
→ -29% | -16%
CCSC1=NSC2=NC(=O)/C(=C\c3coc4ccccc4c3=O)C(=N)N12
→ i | 18%
NC(=O)c1nsc(C(=O)N(Cc2ccc(F)cc2)C(C(=O)NCC2CCCO2)c2ccc(F)cc2)c1N (centres undefined)
→ -18% | -20%
COC(C(=O)N1CCC(n2nccc2NC(=O)C2CC2)CC1)c1ccccc1 (centres undefined)
→ i | -15%
COC1CCN(C(=O)c2ccc(OC3CCN(Cc4ccccn4)CC3)cc2)CC1
→ 5% | 3%
CC(Sc1nc2ccc(C(=O)c3ccccc3)cc2[nH]1)C(=O)O (centres undefined)
→ -4% | -16%
COC(=O)[C@@]12C[C@@H](CC(=O)NCC34CC5CC(CC(C5)C3)C4)C(=O)N(Cc3cccc4ccccc34)C1=CCC(C)(C)C2
→ -15% | -9%
C=CCn1c(-c2oc3nc(-c4ccccc4)cc(-c4ccccc4)c3c2N)n[nH]c1=S
→ i | 6%

# (listing goes on)
# Every second line gives: VACV mCherry inh | Vaccinia Venus
O=C(Nc1nnc(C2CC2)s1)c1ccc(S(=O)(=O)c2ccccc2)cc1
→ -8% | -10%
C=CC(C)(O)CCC=C(C)C (centres undefined)
→ 12% | 11%
Cc1ccc(C(=O)NCc2ccc(N3CCN(C(=O)OC(C)(C)C)CC3)cc2)cc1
→ i | -7%
CC1CCN(c2ccccc2NC(=O)c2ccc(Br)o2)CC1
→ i | -8%
Cc1c(C)n(Cc2ccc(Cl)cc2)c2ccc(C(=O)NCCCN3CCOCC3)cc12
→ -4%[7.34 µM] | -10%[7.34 µM]
Cc1ccc(NC(=S)N(CCCN2CCOCC2)Cc2ccccn2)cc1Cl
→ -15% | -14%
Cc1cc(-c2ccc(F)cc2)n2ncc(-c3ccccc3)c2n1
→ 16% | -5%
O=c1c2ccccc2c(C=Nc2cccc(O)c2)c(O)n1-c1ccc2c(c1)OCO2
→ · | -15%
CCCCCCn1c(=O)[nH]c2c(c1=O)CCC2
→ i | -11%
CC1=C(C#N)C2C(/C1=N/O)C2(C)C (centres undefined)
→ -15% | -22%
Cc1ccc(S(=O)(=O)N2CCC(=O)N([C@H](COCc3ccc(Cl)cc3)Cc3ccccc3)CC2)cc1
→ 9% | -14%
Cc1ccc(-c2nc3c(c(SCC(=O)N4CCCC4)n2)COC(C)(C)C3)cc1
→ -26% | -29%
Cc1ccc(-c2nnc(Nc3cccc(O)c3)c3ccccc23)cc1S(=O)(=O)NCC1CCCO1 (centres undefined)
→ -26% | -10%
COc1ccc(/C(N)=N/OC(=O)Cc2cccs2)cc1OC
→ i | 1%
CCC12OC(=N)C(C#N)(C1C)C(C#N)(C#N)C(c1ccccc1)O2 (centres undefined)
→ -9% | 4%

# Fetched one by one from the entries so far, 4 records:
# Every second line gives: VACV mCherry inh | Vaccinia Venus
Cc1ccc(-c2nnc(Nc3cccc(O)c3)c3ccccc23)cc1S(=O)(=O)NCC1CCCO1 (centres undefined)
→ -26% | -10%
CCC12OC(=N)C(C#N)(C1C)C(C#N)(C#N)C(c1ccccc1)O2 (centres undefined)
→ -9% | 4%
O=C(Nc1nnc(C2CC2)s1)c1ccc(S(=O)(=O)c2ccccc2)cc1
→ -8% | -10%
Cc1ccc(-c2nc3c(c(SCC(=O)N4CCCC4)n2)COC(C)(C)C3)cc1
→ -26% | -29%

# Next section.
SMILES	VACV mCherry inh	Vaccinia Venus
O=C(NCC#CCOCc1ccccc1)c1ccccc1	i	-17%
N#CCCn1cc(C(=O)O)c(-c2cc3ccccc3o2)n1	i	2%
Cc1cc2ccccc2c(=O)n1CC(=O)NCC(=O)N1CCC2(CC1)OCCO2	10%	9%
COCCCN1C(=O)C(CC(=O)NC2CCCCC2)CC(C(=O)N(C)C)=C1C (centres undefined)	-15%	-7%
NC(=S)NN=C1CCCCCCCCCC1	?	?
CC(=O)Nc1ccc(N2C(=O)CC(N3CCN(Cc4ccc5c(c4)OCO5)CC3)C2=O)cc1 (centres undefined)	·	-1%
CCCCn1nnnc1SCC(=O)N1CCN(C(=O)c2ccco2)CC1	-3%	-17%
Cc1ccc(C(=O)Nc2ccc3oc(-c4ccncc4)nc3c2)c(Cl)c1	-2%	-13%
O=C(Nc1ccccc1)c1ccccc1C(=O)N1CCCCC1	0%	-6%
Cc1ccc(S(=O)(=O)N2CCc3cc(C(=O)Nc4c(C)cccc4C(C)C)ccc32)cc1	-7%	-7%
COc1ccc(N(CC(=O)N2CCN(c3cccc(C)c3C)CC2)S(=O)(=O)c2c(C)noc2C)cc1	-17%	-16%
COCOc1ccc(C=O)cc1OCOC	-5%	5%

# 3 entries out of the list, ordered by molecular weight, rising:
SMILES	VACV mCherry inh	Vaccinia Venus
O=C(NCC#CCOCc1ccccc1)c1ccccc1	i	-17%
CCCCn1nnnc1SCC(=O)N1CCN(C(=O)c2ccco2)CC1	-3%	-17%
COc1ccc(N(CC(=O)N2CCN(c3cccc(C)c3C)CC2)S(=O)(=O)c2c(C)noc2C)cc1	-17%	-16%

# Carrying on:
SMILES	VACV mCherry inh	Vaccinia Venus
COc1nc(Nc2ccc(-c3nc4ccccc4o3)cc2)nc(N2CCOCC2)n1	·	-20%
CCCCNc1nc2ccccc2n1CC(=O)Nc1ccc2c(c1)OCCO2	-11%	-9%
Cc1cccc(-c2ccc(O)cc2CN2CCN(c3ncc(Cc4ccccc4)cn3)CC2)c1	?	-27%
COc1cccc(OC)c1OCCOCCN1CCN(C)CC1	-4%	-8%
CC12CC3CC(C)(C1)CC(Nc1nc(N4CCOCC4)nc4ccccc14)(C3)C2	i	-13%
CNC(=O)CSc1nccn1Cc1ccc(Cl)cc1	-14%	2%
O=C(COC(=O)CCCNC(=O)c1ccc(Cl)cc1)Nc1ccc(Br)cc1	i	-9%
Cc1oc(-c2ccccc2F)nc1CS(=O)(=O)CC(=O)N1CCN(c2cccc(C(F)(F)F)c2)CC1	?	?
CS(=O)(=O)Cc1ccc(C(=O)NC2CCN(Cc3ccccc3)C2)cc1 (centres undefined)	-13%	-2%
Cc1ccc(CNC(=O)CS(=O)Cc2nc(-c3ccccc3F)oc2C)cc1 (centres undefined)	-14%	-11%
Fc1ccccc1C1c2cccn2CCN1C(=S)Nc1ccc(Br)cc1 (centres undefined)	?	-22%
COc1cccc(C(=O)Nc2c(C(=O)NC(C)(C)C)oc3ccccc23)c1	-7%	4%
CCc1nnc(NC(=O)c2ccc(S(=O)(=O)N(CCOC)CCOC)cc2)s1	i	-10%
CC(=O)Nc1ccc(NC(=O)CN(c2cccc(C(C)=O)c2)S(C)(=O)=O)cc1	-5%	-13%
Cc1ccc(NS(=O)(=O)c2cc3[nH]c(=O)c(=O)[nH]c3cc2C)cc1Cl	-3%	-3%
COc1ccc2cc3cc(C(=O)NCc4ccccn4)oc3nc2c1	-9%	-4%
CCOC(=O)c1ccccc1NC(=O)Cn1nnc2sc3c(c2c1=O)CCCC3	-9%	-9%
O=C(CSc1n[nH]c(-c2ccc(Cl)cc2Cl)n1)Nc1ccccn1	-27%	-13%
COC(=O)CSc1nnc(-c2ccc3c(c2)OCO3)n1C	-13%	-6%
COc1ccc(C2=CC(=O)N(Nc3ccccc3)C2=O)cc1	-9%	-9%
COc1ccc(C(=O)n2nc(-c3ccccc3)nc2N)cc1OC	·	-23%
CCOC(=O)N1CCN(C(=O)C2CCN(S(=O)(=O)c3cc(OC)ccc3OC)CC2)CC1	-10%	-1%
COc1ccc(NC(=O)COc2ccc3c(c2)CCC3)cc1	i	-20%
Cc1cc(C)c(Cn2c(C)c(CNCCCc3ccccc3)c(C(=O)O)c2C)c(C)c1	-12%	2%
O=C(NC1CC1)C1=C[C@H](c2csc3ccccc23)C[C@H](OCc2ccc(CO)cc2)O1	-26%	?
O=C(COC(=O)CCC(=O)c1cccs1)NC1CC1	i	-8%
COc1cc(OC)c2c(-c3cccc(-c4ccoc4)c3)cc(=O)oc2c1	?	?
CCC(=O)Nc1nnc(S(=O)(=O)N2c3ccccc3CC2C)s1 (centres undefined)	-14%&-6%	-17%&-7%

# Compound activity from PubChem.
